FGF22 binding = binders of recombinant human FGF22 by thermal shift; SYPRO orange fluorescence; percent of sucrose octasulfate shift, DMSO zero; AID 651658; actives 1.5% (n = 340,000); calls only at 9.99 µM;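 active = melting point raised past a set limit in the mean and every replicate; three in four hits are not shown here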
Target sequence (Q9HCT0 whole entry, looked up): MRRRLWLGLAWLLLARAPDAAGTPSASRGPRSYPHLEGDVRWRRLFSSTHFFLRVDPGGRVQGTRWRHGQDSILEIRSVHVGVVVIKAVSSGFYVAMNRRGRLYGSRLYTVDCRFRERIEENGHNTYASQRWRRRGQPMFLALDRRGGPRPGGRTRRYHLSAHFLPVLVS
E coli growth = E. coli growth inhibition | AID 1053175 | actives 0.21% (n = 330,000) | Escherichia coli growth, OD600, 23 h; hits give low values | OD600 absorbance (no concentration beside the values);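 active = OD600 absorbance below the run mean of sample wells minus 3.6 SD, in any replicate, cut at about 0.56 in these data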;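 also: stock transfer was 300 nL into about 60 µL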
AF4-AF9 inh = MLL-AF4/AF9 protein interaction inhibition; AlphaScreen, biotin-AF4 peptide binding to FLAG-AF9; actives 0.47% (n = 350,000); inhibition, % at 10 µM; P42568;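 active = every replicate reaching a set inhibition limit, whatever the replicate mean, cut at about 25% in these data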;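 also: 0% = plate neutral control median and 100% = total signal loss; the record names both 10 and 1 µM as test concentration; the first replicate is given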
Target sequence (P42568 whole entry, looked up): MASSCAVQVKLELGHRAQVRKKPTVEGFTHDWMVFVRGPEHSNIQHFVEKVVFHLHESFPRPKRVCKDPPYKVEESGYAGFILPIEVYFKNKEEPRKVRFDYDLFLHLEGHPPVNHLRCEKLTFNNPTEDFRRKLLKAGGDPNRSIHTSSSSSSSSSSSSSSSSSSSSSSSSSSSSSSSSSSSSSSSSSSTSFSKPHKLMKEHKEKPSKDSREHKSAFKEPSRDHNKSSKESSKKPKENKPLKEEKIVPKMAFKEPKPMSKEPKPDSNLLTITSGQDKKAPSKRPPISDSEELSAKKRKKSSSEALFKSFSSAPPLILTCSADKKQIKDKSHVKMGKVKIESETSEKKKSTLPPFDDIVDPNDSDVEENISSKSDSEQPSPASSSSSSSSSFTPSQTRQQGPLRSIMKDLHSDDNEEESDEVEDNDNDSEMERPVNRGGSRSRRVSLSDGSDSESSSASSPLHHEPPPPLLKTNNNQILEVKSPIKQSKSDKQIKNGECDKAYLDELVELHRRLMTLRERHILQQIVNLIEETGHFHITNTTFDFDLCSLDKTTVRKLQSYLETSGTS
UCH37 inh = inhibitors of human deubiquitinating enzyme UCH37. purified proteasome/UCH37, Ub-AMC cleavage fluorescence. inhibition, % (no concentration beside the values). actives 0.33% (n = 330,000);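 active = mean of two replicates above 20%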;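 also: 0% = compound-free wells with enzyme and 100% = wells lacking proteasome; stock transfer was 100 nL into about 20 µL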
Target sequence (Q9Y5K5 whole entry, looked up): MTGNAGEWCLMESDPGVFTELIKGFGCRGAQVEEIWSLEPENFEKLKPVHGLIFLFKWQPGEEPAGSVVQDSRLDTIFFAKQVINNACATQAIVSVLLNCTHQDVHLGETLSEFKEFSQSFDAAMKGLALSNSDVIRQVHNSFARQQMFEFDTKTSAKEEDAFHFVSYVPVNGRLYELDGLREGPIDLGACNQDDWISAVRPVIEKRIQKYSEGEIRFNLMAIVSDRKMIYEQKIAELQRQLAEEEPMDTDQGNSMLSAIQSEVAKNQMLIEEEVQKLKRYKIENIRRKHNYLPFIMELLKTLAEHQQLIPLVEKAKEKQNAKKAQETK
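Material: Human UCH37 enzyme supplied as purified proteasome complex | Schedule: 30 min preincubation with enzyme, 25 min cleavage at room temperature | Detection: AMC fluorescence 355/460 nm | Measure: % inhibition of Ub-AMC cleavage fluorescence | Controls: Wells without proteasome as full block, compound-free enzyme plus substrate as uninhibited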
Bfl-1 A1 inh = inhibitors of the anti-apoptotic protein A1, read as caspase activation. MEF A1-2A-BIM cells, Caspase-Glo 3/7 luminescence, 3 h; percent of clofoctol response, vehicle zero. AID 2462. caspase activation, % (no concentration beside the values). actives 0.066% (n = 330,000);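 active = over half of replicate activation scores above 10%, or exactly half above 10 with the replicate mean above 10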;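 also: wells of about 30 µL received 50 nL stock; many hits fall short of the cut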
rRNA inh HTS = inhibits bacterial ribosomal RNA function over humanized ribosomes. E. coli WT GFP vs humanized-ribosome RFP mutants, fluorescence, 24 h; hits give low values; DMSO median 0, no signal -100. GFP signal change (wild-type ribosome), % (no concentration beside the values). actives 1.6% (n = 350,000);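 active = significant combined selectivity score with lowered wild-type GFP, culture density cut under 30%, mutant RFP and density less affected; inactive = any of these conditions unmet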; also: one replicate is shown; some compounds called inactive have numbers as strong as hits
T cruzi inh = T. cruzi replication inhibition; actives 1.4% (n = 300,000); inhibition, % (concentration not given with the values); T. cruzi beta-gal in NIH3T3, luminescence, 90 h;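 active = mean inhibition across valid replicates above about 55%, limit read from the data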;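 also: signal also drops with host cell toxicity which is not excluded here; 0% = plate median of DMSO wells and 100% = zero luminescence signal; higher percent means less beta-gal luminescence so fewer parasites; stock transfer was 50 nL into about 50 µL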
Beta cell apopt = blocks beta cell apoptosis. INS-1E cytokine-induced death, ATP luminescence, 48 h; percent of positive-control rescue, neutral wells zero. protection from apoptosis, % (concentration not given with the values). actives 0.8% (n = 300,000). AID 435005;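 active = all replicates at 75% or more, or half of them and the mean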;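 also: 0% = cytokine-treated negative control wells and 100% = positive control rescue; higher means more ATP so stronger rescue from cytokine killing; wells of about 40 µL received 100 nL stock; the first replicate is given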
rRNA inh HTS OD600 = further read-out of rRNA inh HTS, marked with its call; OD600 change, %; measured here: OD600 growth;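 optical density of the mix in the first replicate; 0 = DMSO median and -100 = no signal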
rRNA inh HTS RFP = recorded beside rRNA inh HTS, whose call it bears; RFP signal change, %; measured here: RFP humanized mutant strains;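 first replicate; 0 = DMSO median and -100 = no signal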
* marks the source's active call; other numbers are inactive results; i = inactive; . = not tested or not shown; & = joins results of further samples.

SMILES	FGF22 binding	E coli growth	AF4-AF9 inh	UCH37 inh	Bfl-1 A1 inh	rRNA inh HTS	rRNA inh HTS OD600	rRNA inh HTS RFP	T cruzi inh	Beta cell apopt
CCOc1ccccc1N1CC(C(=O)NNC(=O)c2cc(OC)c(OC)c(OC)c2)CC1=O (centres undefined)	i	0.68	-0.8	1.8	-0.3	9	22	0.3	.	-5
Cc1ccc2cccc(O)c2[n+]1[O-]	.	0.69	.	4.4	0.2	.	.	.	-8	-6
Cc1ccc(N2CC(C(=O)Nc3ccc(S(=O)(=O)N4CCOCC4)cc3)CC2=O)cc1 (centres undefined)	i	0.68	0.4	1.2	0.4	0	-7	0.4	-13	0
CCCCCn1c(CN2CCN(c3cccc(Cl)c3)CC2)nc2c1c(=O)n(C)c(=O)n2C	.	0.68	.	2.5	0.0	.	.	.	9	5
Cc1cc(C(=O)COC(=O)c2ccc[nH]c2=O)c(C)n1-c1ccccc1	i	0.71	3.1	6.5	-0.9	.	.	.	-10	-7
CC1(C(=O)OCC(=O)NNC(=O)COc2ccc(Cl)cc2)CC1(Cl)Cl (centres undefined)	i	0.68	9.2	-2.4	0.8	-6	-9	2.8	-5	-2
CCOC(=O)c1c(C)nn(-c2ncccc2NC(=O)CCC(=O)O)c1C	i	0.65	.	0.6	0.2	20	10	3.6	.	-3
CC(=O)NC(c1cc(Cl)c2cccnc2c1O)C1CC1 (centres undefined)	i	0.68	1.2	2.2	1.7	6	-3	-11	.	87*
COc1ccc(/C=C/C(=O)c2ccc3c(c2)OCCO3)cc1[N+](=O)[O-]	.	0.72	.	6.9	0.8	.	.	.	0	-20
Cc1ccc(NC(=O)OCCN2CCN(S(=O)(=O)c3ccc(C)cc3)CCC2=O)cc1	i	0.8	-8.0	6.6	0.0	-18	-13	-14	3	-9
CC(NC(=O)C1CCN(C(=O)c2ccc(F)cc2)CC1)c1ccc(-n2ccnc2)cc1 (centres undefined)	i	0.68	2.3	2.3	-0.5	8	9	-0.9	.	1
CC1CCCN(c2c3c(nc4ccccc24)CCCC3)C1 (centres undefined)	i	0.62	-1.6	1.5	0.0	-5	7	3.2	33	3
C=C1C2C[C@H](O)C(C)(C)[C@@]2(O)[C@H](O)C[C@]23C[C@@](C)(O)[C@H](CC[C@H]12)[C@H]3O (some centres undefined)	i	.	-3.7	1.3	0.5	0	11	8.4	-9	4
C=CCn1c(=O)c2ccccc2n2c(SCc3nc4ccccc4s3)nnc12	.	0.77	.	-2.6	-0.2	.	.	.	6	6
CCOc1ccc(-c2nc3ccccc3c(=O)o2)cc1	i	0.72	-1.1	-84	-7.5	-12	-23	0.3	4	-4
CC(C)c1nc2c(c(=O)c3ccccc3n2C)c(=O)n1-c1ccc(F)cc1	.	0.73	.	7.0	0.5	.	.	.	16	6
CCN1/C(=C2/SC(=S)N(NC(C)=O)C2=O)Sc2ccc(Cl)cc21	.	0.69	-1.3	2.1	1.0	-7	-6	-2.5	20	14
C#CCOCCOCCOCCNc1nc(N2CCN(C(=O)[C@H](C(C)C)n3cc(CCO)nn3)CC2)nc(N2CCN(C(=O)[C@H](C(C)C)n3cc(CCO)nn3)CC2)n1	i	.	.	0.2	0.2	0	-5	-3.3	-4	-10
O=C(CSc1nnc(-c2cccnc2)n1CCc1ccccc1)N1CCCCC1	.	0.69	.	4.2	0.6	.	.	.	-2	-5
CCOC(=O)CNC(=O)c1sc2ncnc(N3CCc4ccccc4C3)c2c1C	i	0.65	-46	-5.4	-0.9	-2	2	-7.8	5	-3

Of the compounds above, 2 contain two or more sulfur atoms:
SMILES	FGF22 binding	E coli growth	AF4-AF9 inh	UCH37 inh	Bfl-1 A1 inh	rRNA inh HTS	rRNA inh HTS OD600	rRNA inh HTS RFP	T cruzi inh	Beta cell apopt
C=CCn1c(=O)c2ccccc2n2c(SCc3nc4ccccc4s3)nnc12	.	0.77	.	-2.6	-0.2	.	.	.	6	6
CCN1/C(=C2/SC(=S)N(NC(C)=O)C2=O)Sc2ccc(Cl)cc21	.	0.69	-1.3	2.1	1.0	-7	-6	-2.5	20	14

The listing continues.
SMILES	FGF22 binding	E coli growth	AF4-AF9 inh	UCH37 inh	Bfl-1 A1 inh	rRNA inh HTS	rRNA inh HTS OD600	rRNA inh HTS RFP	T cruzi inh	Beta cell apopt
CC12CCC(C/C1=N/O)C2(C)CBr (centres undefined)	i	.	.	.	0.5	5	2	0.3	2	-5
CC(=O)Nc1cccc(NC(=O)CCCC(=O)O)c1	.	0.66	.	-4.0	-0.3	.	.	.	-12	-2
O=C(COc1ccc(Br)cc1)Nc1ccc(-c2nnc(-c3ccco3)o2)cc1	.	0.7	.	1.3	0.6	.	.	.	3	-5
Cc1ccc2c(c1)cc(C(=O)NCc1ccccc1)n2C	i	0.69	1.4	1.6	0.4	12	8	-5.2	-7	-5
Cc1ccc(C(=O)NC2CCCCNC2=O)cc1 (centres undefined)	i	0.63	-1.8	0.2	0.5	-1	4	-4.8	7	-1
CCCCNC(=O)CCNS(=O)(=O)c1ccc(Br)cc1	i	0.65	-13	1.3	0.0	9	2	0.3	-9	-6
COc1ccc(Cl)cc1NS(=O)(=O)c1cccc(C(=O)N2CC(C)OC(C)C2)c1 (centres undefined)	i	0.68	-2.5	3.7	1.0	-4	-10	-2.0	.	0
COC(=O)C(Oc1ccc2c(-c3ccc(OC)cc3)cc(=O)oc2c1)c1ccccc1 (centres undefined)	.	0.74	.	0.1	0.8	.	.	.	-12	-8
O=C(NCCc1ccccc1)C1CCCN(S(=O)(=O)c2cnc[nH]2)C1 (centres undefined)	i	0.69	-1.9	4.4	0.3	-3	0	-4.5	-2	-2
Cc1ccc(NC(=O)N(Cc2nc3ccccc3c(=O)[nH]2)Cc2cccs2)cc1	.	0.72	.	0.2	-0.1	.	.	.	-5	1
CC(C)N(C(=O)[C@H]1CC(CC(=O)NCC23CC4CC(CC(C4)C2)C3)C(=O)N2CCc3c([nH]c4ccccc34)[C@]12C)C(C)C (some centres undefined)	i	0.69	6.3	0.6	.	-1	4	16	.	.
Cc1ccc(N=Nc2cc(C)ccc2O)c(C)c1	i	0.69	4.4	3.1	-1.9	12	14	0.2	1	1
Cc1noc(C)c1NC(=O)Nc1ccc2c(c1)C(=O)N([C@@H](C)CO)C[C@@H](C)[C@@H](CN(C)Cc1ccc3c(c1)OCO3)O2	i	0.71	0.5&-1.9	-0.1	0.0	1&1	5&7	0.9&-2.0	.	-1
CC(C)OP(=O)(OC(C)C)C(NC(=O)c1ccc(Br)cc1)c1ccccc1 (centres undefined)	.	0.7	.	3.6	0.8	.	.	.	-11	4
COC(=O)c1ccc(CNC(=O)COC(=O)/C=C/c2ccc(O)c(OC)c2)cc1	i	0.7	-1.2	-7.5	0.8	-7	-12	5.1	.	0
CC1N(C(=O)N2CCOCC2)CCN1S(=O)(=O)c1ccc(Cl)cc1 (centres undefined)	i	0.67	-1.6	3.0	0.3	7	16	2.4	2	0
CN(C)c1ccc(S(=O)(=O)NCC(=O)OCC(=O)NC(=O)C2CCCCC2)cc1[N+](=O)[O-]	i	0.61	0.2	1.6	1.2	.	.	.	.	-2
CCOc1cc(CNC(C)(C)C)ccc1OCC(=O)Nc1cccc(C(F)(F)F)c1	.	0.68	8.4	1.8	-0.3	0	-11	-1.2	12	2
CC1(C)OC(C(O)(c2ccccc2)c2ccccc2)[C@@H](C(O)(c2ccccc2)c2ccccc2)O1 (some centres undefined)	i	.	0.4	1.5	-1.1	12	-2	-2.2	1	32
O=C(CSc1nncn1-c1ccccc1)NCc1cccs1	.	0.68	.	1.7	0.3	.	.	.	-7	-5
COc1ccccc1-n1cc(-c2ccc(Br)cc2)[nH]c1=S	i	0.67	1.6	6.0	-0.1	-10	-10	2.4	20	0
CCn1cc(SCC(N)=O)c2ccccc21	i	0.75	5.2	1.4	0.2	7	-2	-7.9	3	-5
CC(C)(C)NC(=O)C(Cc1ccccc1)NS(=O)(=O)c1cccc2nsnc12 (centres undefined)	.	0.68	.	2.6	0.0	.	.	.	-7	-5
O=C(NCCCn1ccnc1)c1ccc2nccnc2c1	i	0.7	0.6	2.1	0.6	2	5	-1.8	-11	.
CCn1c(=O)n(CC)c2cc(N3CCCC3)c(NC(=O)c3cccc(OC)c3)cc21	i	0.69	-8.7	0.4	-0.1	-6	-21	2.4	12	4
CC(C)(C)OC(=O)N[C@@H](Cc1ccccc1)C(=O)N[C@@H](CO)[C@H](O)[C@@H]1C[C@@H]1C(=O)NC1CCCCC1	i	.	-0.9	4.2	0.5	1	1	-0.4	.	1
CCOC(=O)CSc1nc2ccc(S(=O)(=O)N3CCOCC3)cc2[nH]1	.	0.7	.	-0.8	0.5	.	.	.	-1	-5
COc1ccc(CCNC(=O)COC(=O)Cc2cccc(F)c2)cc1	i	0.71	2.2	2.4	.	2	6	1.3	.	.
CCN(CC)S(=O)(=O)c1cccc(-c2nnc(SCc3nnc(-c4ccccc4)o3)n2C)c1	.	0.8	.	3.3	0.2	.	.	.	-2	-3
CCOC(=O)c1sc2nc(N3CCOCC3)c3c(c2c1N)CCN(Cc1ccccc1)C3	.	0.73	.	-188	-0.3	.	.	.	52	1
COc1ccc(C(=O)NNC(=O)CSc2nnc(-c3cccnc3)o2)cc1	.	0.64	-3.0	2.0	-0.2	12	11	-1.9	-6	-4
COC(=O)c1cccc(NC(=S)N2CCN(C)CC2)c1	i	0.66	-1.2	3.8	0.7	1	0	-1.7	-20	-1
CC(C)(C)c1ccc(N2C(=O)Cc3c2nc(N)c(C#N)c3N)cc1	.	0.69	.	2.7	.	.	.	.	3	9
CC(=O)Nc1c(C(N)=O)oc2ccc(Cl)cc12	i	0.61	-0.2	2.1	0.4	.	.	.	9	0
COc1cc([N+](=O)[O-])ccc1NC(=O)COC(=O)CCOc1ccc(C)cc1	i	0.65	3.5	2.0	-0.4	10	5	-2.4	.	-5
CC(CCc1ccccc1)NC(=O)CN1CCN(Cc2ccccc2)C1=O (centres undefined)	.	0.66	.	0.0	-1.0	.	.	.	4	2
CC(=O)N1CCN(c2ccccc2NC(=O)Cc2ccc(Cl)cc2)CC1	i	0.68	-1.4	-0.5	-0.2	-12	-1	-0.1	-1	-3
O=C(CN1CCN(Cc2ccccc2)CC1)Nc1ccc(-n2cnnn2)cc1	i	0.68	6.0	0.6	-0.1	20	14	-2.0	5	3

Retrieved one by one from the entries so far (3):
SMILES	FGF22 binding	E coli growth	AF4-AF9 inh	UCH37 inh	Bfl-1 A1 inh	rRNA inh HTS	rRNA inh HTS OD600	rRNA inh HTS RFP	T cruzi inh	Beta cell apopt
CCOC(=O)CNC(=O)c1sc2ncnc(N3CCc4ccccc4C3)c2c1C	i	0.65	-46	-5.4	-0.9	-2	2	-7.8	5	-3
CCOc1cc(CNC(C)(C)C)ccc1OCC(=O)Nc1cccc(C(F)(F)F)c1	.	0.68	8.4	1.8	-0.3	0	-11	-1.2	12	2
CC(C)(C)NC(=O)C(Cc1ccccc1)NS(=O)(=O)c1cccc2nsnc12 (centres undefined)	.	0.68	.	2.6	0.0	.	.	.	-7	-5

Structures from the list above with a furan ring, fused or not:
SMILES	FGF22 binding	E coli growth	AF4-AF9 inh	UCH37 inh	Bfl-1 A1 inh	rRNA inh HTS	rRNA inh HTS OD600	rRNA inh HTS RFP	T cruzi inh	Beta cell apopt
O=C(COc1ccc(Br)cc1)Nc1ccc(-c2nnc(-c3ccco3)o2)cc1	.	0.7	.	1.3	0.6	.	.	.	3	-5
CC(=O)Nc1c(C(N)=O)oc2ccc(Cl)cc12	i	0.61	-0.2	2.1	0.4	.	.	.	9	0

An excerpt; count on the stated rates, not on these rows.
